High-throughput results: PubChem BioAssay, National Center for Advancing Translational Sciences (NCATS)
2A StopGo = FMDV 2A StopGo reporter, luciferase signal | human cells with a luciferase reporter of 2A StopGo recoding; control for the full effect not named in the record | AID 1159524 | Potency, µM (top dose mostly 57.9 µM), inactives show at the top dose signal change, negative = less light | 410,000 compounds, 1.2% hits; active = well fitted falling curve with a large enough effect; inconclusive = small, poorly fitted or top-dose-only effect; inactive = no such curve, though single readings can be large or run the other way; tested in HEK293T cells; note: % is set by controls: 0 for no effect and ±100 for the full control effect; nearly all actives have a fitted effect of over 45% in size; luciferase light after 4 h
RE007 growth inh = less growth of the S. pombe RE007 Vpr strain; S. pombe RE007 Vpr strain, BacTiter-Glo ATP luminescence, 24 h; control for the full effect not named in the record; Potency, µM (top dose mostly 92.2 µM), inactives show top-dose activity change, negative = less growth; 360,000 compounds, 0.21% hits; active = well fitted falling curve with a large enough effect; inconclusive = small, poorly fitted or top-dose-only effect; inactive = no such curve, though single readings can be large or run the other way;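 note: % is set by controls: 0 for no effect and ±100 for the full control effect; nearly all actives have a fitted effect of over 50% in size; the assay follows cell death caused by Vpr and the record does not say whether a fall means rescue or toxicity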
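Fission yeast strain RE007, carrying one chromosomally integrated HIV-1 vpr copy, was seeded at OD 0.01 in PMG+AL medium with 23 nL pinned compound. After 24 h at 30 °C and 99% humidity, viability was read by BacTiter-Glo luminescence.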
SARS PLP yeast = blocks SARS-CoV papain-like protease in a yeast assay. S. cerevisiae expressing SARS-CoV PLpro, growth rescue; control for the full effect not named in the record. Potency, µM (titrated, usually from 32.9 µM), for the others: at the highest dose activity, positive = growth rescue. 330,000 compounds, 0.19% hits; active means well fitted rising curve with a large enough effect; inconclusive means small, poorly fitted or top-dose-only effect; inactive means no such curve, though single readings can be large or run the other way; note: 0% is about no effect; nearly all actives have a fitted effect of over 55% in size; growth read by luminescence after 48 h
Active calls of the source: *; ? = inconclusive; & = joins results of further samples; [ ] = dose if it differs, or a comment. Potency is the fitted concentration of half-maximal effect. Only part of the results is shown, so the mix of outcomes need not match the whole.

The opening four compounds as a preview:
SMILES	2A StopGo	RE007 growth inh	SARS PLP yeast
Cc1noc(C)c1S(=O)(=O)Nc1ccc2c(c1)CC(=O)N([C@H](C)CO)C[C@H](C)[C@@H](CN(C)CC1CC1)O2	-27.3%	-22.9%	3.9%
CCN(CC(=O)NCc1ccc(Cl)cc1)C(=O)c1sccc1C	-19.0%	-14.9%	-6.3%
Cc1ccc(CN2C(=O)C(Cc3ccccc3)Nc3ncnc(N4CCCCC4)c32)cc1 (stereo not drawn)	-13.4%&-18.4%	0.9%&-1.5%	4.8%
COc1cc(C(=O)NCC(=O)N/N=C/c2cccc(OC(=O)c3ccco3)c2)cc(OC)c1OC	9.7%	0.6%	3.5%

The listing, from the start:
SMILES	2A StopGo	RE007 growth inh	SARS PLP yeast
Cc1noc(C)c1S(=O)(=O)Nc1ccc2c(c1)CC(=O)N([C@H](C)CO)C[C@H](C)[C@@H](CN(C)CC1CC1)O2	-27.3%	-22.9%	3.9%
CCN(CC(=O)NCc1ccc(Cl)cc1)C(=O)c1sccc1C	-19.0%	-14.9%	-6.3%
Cc1ccc(CN2C(=O)C(Cc3ccccc3)Nc3ncnc(N4CCCCC4)c32)cc1 (stereo not drawn)	-13.4%&-18.4%	0.9%&-1.5%	4.8%
COc1cc(C(=O)NCC(=O)N/N=C/c2cccc(OC(=O)c3ccco3)c2)cc(OC)c1OC	9.7%	0.6%	3.5%
CCOC(=O)c1cc(-c2ccc(F)cc2)n(CC(=O)NCc2ccccn2)c1C	9.6%	2.9%	-1.0%
O=S(=O)(NCCC1=CCCCC1)c1ccccc1Cl	107.5%[activator]	-4.6%	3.7%[6.58 µM]
COc1ccccc1CNC(=O)COC(=O)C12CC3CC(CC(O)(C3)C1)C2	-3.8%	10.0%	-0.2%
Cc1nnc(NC(=O)c2cccc(S(=O)(=O)N(C)c3cccc(Cl)c3)c2)s1	-16.7%	-6.7%	-8.2%
CC1CCC(NC(=O)COC(=O)c2cccnc2Cl)CC1 (stereo not drawn)	19.1%	26.3%	1.5%
O=C(CSc1nc2[nH]ncc2c(=O)n1-c1ccccc1Br)NCc1ccccc1Cl	-11.3%	-0.6%	0.3%
CC[C@]12c3[nH]c4ccc(Cl)cc4c3CCN1C(=O)[C@@H](CC(=O)NCc1ccc(OC)c(OC)c1)C[C@@H]2C(=O)N1CCN(C(=O)C2CC2)CC1	-21.0%	10.7%	13.3%
C#CCOCCOCCOCCNc1nc(N2CCN(C(=O)C(Cc3cc4ccccc4[nH]3)n3cc(C(N)Cc4ccc(O)cc4)nn3)CC2)nc(N2CCN(C(=O)C(CCC(=O)O)n3cc(C(N)C(C)CC)nn3)CC2)n1 (stereo not drawn)	-6.5%	-4.2%	1.7%
CCCn1nc(C(=O)N2CCN(S(=O)(=O)c3ccc(C)c(C)c3)CC2)c2ccccc2c1=O	?	6.0%	-1.8%
C[C@H](CO)N1C[C@H](C)[C@@H](CN(C)Cc2ccc(Cl)c(Cl)c2)Oc2c(NS(=O)(=O)c3cccs3)cccc2C1=O	35.3%[activator]	15.5%	-1.7%
COc1ccc(-n2c(CNC(=O)COc3ccc(Cl)cc3Cl)n[nH]c2=S)cc1	4.3%	-13.5%	1.1%
C#CCOCCOCCOCCNc1nc(N2CCN(C(=O)[C@H](CCC(=O)O)n3cc(CN)nn3)CC2)nc(N2CCN(C(=O)[C@H](CCC(=O)O)n3cc([C@@H](N)[C@H](C)CC)nn3)CC2)n1	-9.8%	5.5%	-3.2%
CN(C)CCCN=c1cc(-c2ccccc2)oc2ccc(Cl)cc12	19.1%	?	-6.6%
CC1(NC(=O)Cc2ccc(Cl)c(Cl)c2)CCS(=O)(=O)C1 (stereo not drawn)	-8.7%	-3.2%	1.2%
O=C(Nc1ccccn1)c1cccc(S(=O)(=O)N2CCCc3ccccc32)c1	?	-0.7%	-3.7%
Cc1cc(C)c(NC(=O)COC(=O)c2nc3nccc(C)n3n2)c(Cl)c1	-8.7%	-11.4%	-5.0%
COc1cccc(N2CCN(CC(=O)Nc3ccccc3C(=O)NCc3ccccc3)CC2)c1	?	-4.9%	-1.5%
O=C(COC(=O)c1cccnc1Cl)NC1CCCCC1	16.2%	1.7%	1.0%
C#CCOC(=O)CCCC(=O)NCCCCCCCC	-21.0%	7.7%	-11.2%
CC1(C)CC(=O)C=C(NC2CCCCC2)C1	10.5%	1.0%	6.0%
Cc1ccc(S(=O)(=O)N2CCN(CC(O)CN3CCOCC3)CC2)cc1 (stereo not drawn)	?	2.1%	-3.7%
Next section
SMILES	2A StopGo	RE007 growth inh	SARS PLP yeast
Cc1cc2c(c(CO)c1CCO)C(=O)[C@@H](C)[C@@H]2O	-19.5%	-8.7%	2.7%
COc1ccc(OC)c(NC(=O)COC(=O)Cn2nnc(-c3ccccc3)n2)c1	-19.7%	-4.8%	7.5%
O=C(N/N=C/c1cccs1)C(=O)Nc1cccc(Cl)c1	71.5%[activator]	-4.4%	-5.3%
CCC(C)c1ccc(NC(=O)COC(=O)CCNC(=O)c2ccco2)cc1 (stereo not drawn)	14.1%	-10.6%	-2.3%
O=C(O)Cn1cc(C(=S)N2CCCCC2)c2ccccc21	8.2%	3.4%	0.3%
CCOC(=O)C1=CN(CC)S(=O)(=O)NC1c1ccc(F)c(Cl)c1 (stereo not drawn)	-9.5%	-21.4%	-0.6%
OC(Cc1ccncc1)(c1ccccc1)c1ccccc1	-29.5%	-10.5%	-3.9%
C[C@H](CO)N1C[C@H](C)[C@@H](CN(C)C(=O)NC2CCCCC2)Oc2c(NC(=O)CCC(F)(F)F)cccc2C1=O	48.3%[activator]	4.9%	-4.9%
COc1ccc(CNC(=O)Nc2ccc3c(c2)N(C)C(=O)CS3)cc1	-6.3%	3.3%	-2.7%
CCCSc1ccc([C@@H]2[C@@H]3C(=O)N(C)C(=O)[C@@H]3[C@]3(C(=O)OC)CCCN23)cc1OC	-14.4%	9.1%	-2.9%
O=C(NCCc1nnc2ccc(NCc3ccc(F)cc3)nn12)c1ccccc1	-17.3%	-2.9%	3.1%
FC(F)(F)c1ccccc1NC(=S)N1CCN(Cc2ccc3c(c2)OCO3)CC1	-21.3%	7.6%	1.2%
CCN(C[C@H]1N[C@@](C)(C(=O)OC)[C@H]2C(=O)N(C)C(=O)[C@@H]12)C(=O)c1ccc(F)cc1	-6.4%	-4.6%	2.1%
Cc1c(NS(=O)(=O)c2ccc(NCC3CCCO3)c([N+](=O)[O-])c2)c(=O)n(-c2ccccc2)n1C (stereo not drawn)	-17.6%	-14.4%	-0.7%
CCOC(=O)c1ccc(N2Cc3ccccc3C2=NC(=O)c2ccncc2)cc1	56.7%[activator]	-24.8%	0.9%
O=c1c2ccccc2oc2c1ccc1ccccc12	44.9%[activator]	-15.2%	-31.6%
CC(C(=O)Nc1ccc(S(=O)(=O)N2CCCC2)cc1)N1CCc2ccccc2C1 (stereo not drawn)	-22.6%	0.3%	1.8%
C=CC(=O)N1CCCC(Nc2nc(Nc3ccc(N(C)C(=O)CC)cc3C)nc3nc[nH]c23)C1 (stereo not drawn)	-5.4%	-6.3%	-1.8%
O=C(CCCCN1CCCCC1)c1ccc2c(c1)Cc1ccccc1-2	-20.6%	5.8%	-3.5%
CC(/C=C/c1ccccc1)=N/NC(=O)c1nc2nc(C)cc(C)n2n1	-18.1%	2.2%	-3.6%
CCOc1ccc(Nc2ccc(S(=O)(=O)N3CCN(C)CC3)cc2[N+](=O)[O-])cc1OCC	-12.7%	-6.0%	-0.2%
CCOc1ccc(S(=O)(=O)N2CCCCC2)cc1NC(=O)CN1CCCC1c1cccs1 (stereo not drawn)	?	-1.3%	-6.8%
CC(C)Oc1ccc(S(=O)(=O)N2CCOCC2)cc1NC(=O)C1CCCC1	2.3%	5.5%	-14.0%
O=C(Cn1cnc([N+](=O)[O-])n1)N/N=C/c1cccc(Cl)c1	-7.1%	-8.0%	4.3%
O=C(COC(=O)CC1CCCC1)Nc1ccccc1[N+](=O)[O-]	9.9%	-9.8%	-0.9%
Going on with the list.
SMILES	2A StopGo	RE007 growth inh	SARS PLP yeast
CCC(C)(C)NC(=S)Nc1ccccc1C	-7.6%	5.0%	8.6%
O=C(CSc1nc2[nH]ncc2c(=O)n1-c1ccccc1Cl)N1CCCC1	-11.9%	-16.9%	-0.3%
CN(CC(=O)Nc1ccccc1Cl)C(=O)Cn1cc(C(F)(F)F)ccc1=O	-7.7%	14.9%	-0.2%
CCCCN(C(=O)c1nn(C)c(=O)c2ccccc12)c1c(N)n(CCC)c(=O)[nH]c1=O	-2.0%	7.2%	-3.1%
CCOC(=O)C1CCCN(S(=O)(=O)c2ccc(S(=O)(=O)N3CCCC3)cc2)C1 (stereo not drawn)	?	-0.6%	1.9%
Cc1noc(C)c1NC(=O)N(C)C[C@H]1Oc2ccc(NS(=O)(=O)c3ccccc3)cc2C(=O)N([C@H](C)CO)C[C@@H]1C	-10.7%	11.4%	-3.9%
COc1cccc(CN(C)C(=O)c2cc(S(=O)(=O)N3CCCCCC3)ccc2OC)c1	0.0%	-0.7%	-2.3%
CC(C)NC(=O)N(C)C[C@H]1Oc2ccc(NS(=O)(=O)c3ccccc3)cc2C(=O)N([C@H](C)CO)C[C@@H]1C	-14.8%	-7.7%	-4.7%
Nc1nc(CCl)nc(Nc2ccccc2)n1	37.9%[activator]	-9.8%	-4.5%
C[C@H](NC(=O)c1nc[nH]c1C(=O)NCc1ccccc1)c1ccccc1	-21.1%	3.3%	2.1%
COc1ccc(S(=O)(=O)Nc2cccc3c2O[C@H](CN(C)CC2CC2)[C@@H](C)CN([C@H](C)CO)C3=O)cc1	46.2%[activator]	7.3%	7.6%
CCCCC(=O)OCC(=O)c1[nH]c(C)c(C(C)=O)c1C	4.0%	18.3%	0.8%
CCSc1ccc([C@@H]2[C@H]3C(=O)N(CC)C(=O)[C@H]3[C@]3(C(=O)OC)CCCCN23)cc1OC	?	-9.4%	-5.3%
COc1cccc(CN(C)C(=O)CCN=C2NS(=O)(=O)c3ccccc32)c1	2.8%	-6.0%	4.4%
C=CCn1c(SCc2cc(=O)n3ccsc3n2)nc2ccccc2c1=O	?	7.2%	-1.3%
Cc1cc(C(=O)OCC(=O)NCCN2C(=O)CSC2=O)ccc1[N+](=O)[O-]	6.1%	2.2%	-0.6%
COC(=O)c1ccc2c(c1)c(-c1ccccc1)c(-c1ccccc1)n2C	?	-6.2%	5.3%
O=S(=O)(c1ccc2ccccc2c1)N1CCN(c2ccc(O)cc2)CC1	28.6%	-18.0%	-11.8%
CN(C(=O)CSc1nccc(=O)[nH]1)C1CCCCC1	-21.0%	5.6%	3.7%
CC(Sc1nc2ccccc2c(=O)n1C)C(=O)Nc1ccc2c(c1)OCCO2 (stereo not drawn)	?	10.9%	-6.4%
CC[C@@H]1C=C(C(=O)O)[C@H](c2ccc(OC)c(OC)c2)N1S(=O)(=O)c1ccc(C)cc1	-3.6%	7.0%	4.9%
C=CC(C)(C)c1c2occc2c(O)c2ccc(=O)oc12	?	0.8%	-8.0%
NS(=O)(=O)c1ccc(NC(=O)CCCC(=O)O)cc1	1.0%	5.1%	0.7%

6 entries drawn at random from the list so far, as already listed:
SMILES	2A StopGo	RE007 growth inh	SARS PLP yeast
Cc1noc(C)c1S(=O)(=O)Nc1ccc2c(c1)CC(=O)N([C@H](C)CO)C[C@H](C)[C@@H](CN(C)CC1CC1)O2	-27.3%	-22.9%	3.9%
O=C(COC(=O)c1cccnc1Cl)NC1CCCCC1	16.2%	1.7%	1.0%
Cc1cc2c(c(CO)c1CCO)C(=O)[C@@H](C)[C@@H]2O	-19.5%	-8.7%	2.7%
CN(C)CCCN=c1cc(-c2ccccc2)oc2ccc(Cl)cc12	19.1%	?	-6.6%
CCOc1ccc(S(=O)(=O)N2CCCCC2)cc1NC(=O)CN1CCCC1c1cccs1 (stereo not drawn)	?	-1.3%	-6.8%
C[C@H](CO)N1C[C@H](C)[C@@H](CN(C)Cc2ccc(Cl)c(Cl)c2)Oc2c(NS(=O)(=O)c3cccs3)cccc2C1=O	35.3%[activator]	15.5%	-1.7%

Single records, as listed above. Order of values: 2A StopGo | RE007 growth inh | SARS PLP yeast
Record of CC(C)Oc1ccc(S(=O)(=O)N2CCOCC2)cc1NC(=O)C1CCCC1 → 2.3% | 5.5% | -14.0%
Record of CCN(C[C@H]1N[C@@](C)(C(=O)OC)[C@H]2C(=O)N(C)C(=O)[C@@H]12)C(=O)c1ccc(F)cc1 → -6.4% | -4.6% | 2.1%
